Ecoli rRNA inh: inhibitors of bacterial rRNA selective over humanized ribosomes; E. coli WT GFP vs humanized-ribosome RFP mutants, fluorescence, 24 h; hits give low values; DMSO median 0, no signal -100; GFP signal change (wild-type ribosome), % (no concentration beside the values); 350,000 compounds, 1.6% hits; AID 720706;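 active means significant combined selectivity score with lowered wild-type GFP, culture density cut under 30%, mutant RFP and density less affected; inactive means any of these conditions unmet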; further: one replicate is shown; some compounds called inactive have numbers as strong as hits
FGF22 binding: shifts melting point of recombinant human FGF22. recombinant FGF22 thermal shift, SYPRO orange fluorescence; percent of sucrose octasulfate shift, DMSO zero. AID 651658. Q9HCT0. calls only at 9.99 µM. 340,000 compounds, 1.5% hits;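 active means melting point raised past a set limit in the mean and every replicate; three in four hits are not shown here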
Target sequence (Q9HCT0 whole entry, looked up): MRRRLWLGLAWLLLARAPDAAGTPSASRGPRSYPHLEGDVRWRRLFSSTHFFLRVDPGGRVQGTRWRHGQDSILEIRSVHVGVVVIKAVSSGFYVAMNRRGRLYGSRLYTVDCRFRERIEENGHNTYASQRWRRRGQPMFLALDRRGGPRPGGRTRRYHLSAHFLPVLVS
AF4-AF9 inh: inhibitors of human MLL-AF4/AF9 interaction; P42568; AlphaScreen, biotin-AF4 peptide binding to FLAG-AF9; inhibition, % at 10 µM; 350,000 compounds, 0.47% hits;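 active means every replicate reaching a set inhibition limit, whatever the replicate mean, cut at about 25% in these data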;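 further: 0% = plate neutral control median and 100% = total signal loss; the record names both 10 and 1 µM as test concentration; the first replicate is given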
Target sequence (P42568 whole entry, looked up): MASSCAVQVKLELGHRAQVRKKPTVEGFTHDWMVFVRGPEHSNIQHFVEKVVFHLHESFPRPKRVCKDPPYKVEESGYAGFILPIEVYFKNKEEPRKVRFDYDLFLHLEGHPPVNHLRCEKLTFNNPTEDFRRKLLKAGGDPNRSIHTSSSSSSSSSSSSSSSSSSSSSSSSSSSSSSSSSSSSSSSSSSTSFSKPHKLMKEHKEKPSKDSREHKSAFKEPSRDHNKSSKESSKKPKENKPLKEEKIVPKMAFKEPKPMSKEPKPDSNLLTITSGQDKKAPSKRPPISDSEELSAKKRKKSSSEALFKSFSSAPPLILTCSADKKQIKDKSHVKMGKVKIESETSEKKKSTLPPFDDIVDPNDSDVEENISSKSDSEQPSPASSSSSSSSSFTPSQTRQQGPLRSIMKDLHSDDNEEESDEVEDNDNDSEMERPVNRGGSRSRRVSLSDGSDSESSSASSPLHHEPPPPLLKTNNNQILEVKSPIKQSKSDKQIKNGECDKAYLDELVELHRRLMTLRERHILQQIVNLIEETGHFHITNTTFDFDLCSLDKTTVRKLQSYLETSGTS
E coli growth: E. coli growth inhibition. AID 1053175. Escherichia coli growth, OD600, 23 h; hits give low values. OD600 absorbance (concentration not given with the values). 330,000 compounds, 0.21% hits;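 active means OD600 absorbance below the run mean of sample wells minus 3.6 SD, in any replicate, cut at about 0.56 in these data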;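 further: stock transfer was 300 nL into about 60 µL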
T cruzi inh: T. cruzi replication inhibition | T. cruzi beta-gal in NIH3T3, luminescence, 90 h | inhibition, % (concentration not given with the values) | 300,000 compounds, 1.4% hits | AID 1885;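 active means mean inhibition across valid replicates above about 55%, limit read from the data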;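 further: signal also drops with host cell toxicity which is not excluded here; 0% = plate median of DMSO wells and 100% = zero luminescence signal; higher percent means less beta-gal luminescence so fewer parasites; stock transfer was 50 nL into about 50 µL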
UCH37 inh: blocks the human deubiquitinase UCH37. purified proteasome/UCH37, Ub-AMC cleavage fluorescence. inhibition, % (test concentration not listed). 330,000 compounds, 0.33% hits;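 active means mean of two replicates above 20%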;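 further: 0% = compound-free wells with enzyme and 100% = wells lacking proteasome; stock transfer was 100 nL into about 20 µL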
Target sequence (Q9Y5K5 whole entry, looked up): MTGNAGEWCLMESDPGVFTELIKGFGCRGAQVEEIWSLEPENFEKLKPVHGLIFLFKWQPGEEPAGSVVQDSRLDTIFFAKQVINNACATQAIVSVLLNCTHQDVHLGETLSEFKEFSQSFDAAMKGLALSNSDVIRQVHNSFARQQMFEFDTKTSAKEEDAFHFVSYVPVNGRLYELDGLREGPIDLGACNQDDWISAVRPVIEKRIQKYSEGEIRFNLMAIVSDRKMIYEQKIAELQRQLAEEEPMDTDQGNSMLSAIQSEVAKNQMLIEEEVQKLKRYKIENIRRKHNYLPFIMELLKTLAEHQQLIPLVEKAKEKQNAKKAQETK
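Signal – fluorescence, ex 355 nm, em 460 nm · System – Proteasome-bound UCH37 · Input – 0.15 nM proteasome as dispensed · Timing – 30 min preincubation with enzyme, 25 min cleavage at room temperature · Read-out basis – percent inhibition of cleavage signal versus uninhibited and no-proteasome wells · Medium – Tris-HCl pH 7.4 with ATP-MgCl2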
A1 inh: inhibitors of the anti-apoptotic protein A1, read as caspase activation; MEF A1-2A-BIM cells, Caspase-Glo 3/7 luminescence, 3 h; percent of clofoctol response, vehicle zero; caspase activation, % (concentration not given with the values); 330,000 compounds, 0.066% hits; AID 2462;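 active means over half of replicate activation scores above 10%, or exactly half above 10 with the replicate mean above 10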;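 further: wells of about 30 µL received 50 nL stock; many hits fall short of the cut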
Beta apoptosis: beta cell apoptosis inhibition; AID 435005; 300,000 compounds, 0.8% hits; protection from apoptosis, % (no concentration beside the values); INS-1E cytokine-induced death, ATP luminescence, 48 h; percent of positive-control rescue, neutral wells zero;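 active means all replicates at 75% or more, or half of them and the mean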;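 further: 0% = cytokine-treated negative control wells and 100% = positive control rescue; higher means more ATP so stronger rescue from cytokine killing; wells of about 40 µL received 100 nL stock; the first replicate is given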
Ecoli rRNA inh OD600: further read-out of Ecoli rRNA inh, marked with its call; OD600 change, %; measured here: OD600 growth;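 optical density of the mix in the first replicate; 0 = DMSO median and -100 = no signal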
Ecoli rRNA inh RFP: also measured in Ecoli rRNA inh; calls as there; RFP signal change, %; measured here: RFP humanized mutant strains;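 first replicate; 0 = DMSO median and -100 = no signal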
Active calls of the source: *. An excerpt; count on the stated rates, not on these rows.

For CCc1noc(C)c1C(=O)N1CCCSC1=Nc1ccccc1C(C)C the results were Ecoli rRNA inh -2, FGF22 binding inactive, AF4-AF9 inh 7.3, E coli growth 0.67, T cruzi inh 17, UCH37 inh 2.1, A1 inh -1.0, Beta apoptosis 4, Ecoli rRNA inh OD600 -30 and Ecoli rRNA inh RFP -6.6.
Screening COc1cc(-c2nnn(CC(=O)NCc3ccccc3)n2)cc(OC)c1OC returned FGF22 binding inactive, AF4-AF9 inh -1.8, E coli growth 0.69, T cruzi inh 3, UCH37 inh -1.1, A1 inh 0.1 and Beta apoptosis 4.
Screening Cn1ncc2c(Sc3ccc(Cl)cc3)ncnc21 returned Ecoli rRNA inh -1, FGF22 binding inactive, AF4-AF9 inh -2.6, E coli growth 0.62, T cruzi inh 6, UCH37 inh 5.7, A1 inh 0.0, Beta apoptosis -26, Ecoli rRNA inh OD600 6 and Ecoli rRNA inh RFP 1.8.
For CN1C[C@@H]2[C@@H]3C(=O)N(Cc4ccccc4)C(=O)[C@@H]3[C@](C)(C1=O)N2C(=O)c1ccc(C(C)(C)C)cc1 the results were Ecoli rRNA inh -12, FGF22 binding inactive, AF4-AF9 inh -1.2, UCH37 inh 5.9, Ecoli rRNA inh OD600 -13 and Ecoli rRNA inh RFP 7.7.
COC(=O)c1cc(S(=O)(=O)NCc2ccc3c(c2)OCO3)cn1C was read as Ecoli rRNA inh -13*, FGF22 binding inactive, AF4-AF9 inh -0.8, E coli growth 0.65, T cruzi inh -4, UCH37 inh 2.1, A1 inh 0.2, Beta apoptosis 3, Ecoli rRNA inh OD600 6.6* and Ecoli rRNA inh RFP 4.0*.
Screening COc1ccc(/C=C2\SC(=S)N(CCCC(=O)N3CCN(C)CC3)C2=O)cc1OC returned Ecoli rRNA inh 5, FGF22 binding inactive, AF4-AF9 inh -3.3, E coli growth 0.68, UCH37 inh 3.7, Ecoli rRNA inh OD600 9 and Ecoli rRNA inh RFP 1.9.
For COc1ccc(NC(=O)CNC(=O)C2CCCCC2)cc1OC the results were Ecoli rRNA inh -3, FGF22 binding inactive, AF4-AF9 inh -7.1, E coli growth 0.71, UCH37 inh 5.3, A1 inh -0.3, Beta apoptosis -4, Ecoli rRNA inh OD600 1 and Ecoli rRNA inh RFP -1.3.
`Cc1cccc(NC(=O)c2c(C)nc3ccccn23)c1` gave E coli growth 0.7, T cruzi inh 14, UCH37 inh 1.7, A1 inh -2.3 and Beta apoptosis -5.
For CC(=O)Nc1ccc(NC(=O)C(C)Sc2nnc(-c3ccc4c(c3)OCO4)o2)cc1 (centres undefined) the results were Ecoli rRNA inh 3, FGF22 binding inactive, AF4-AF9 inh -1.3, E coli growth 0.67, UCH37 inh 4.6, A1 inh 0.6, Beta apoptosis 3, Ecoli rRNA inh OD600 9 and Ecoli rRNA inh RFP -2.2.
`C=CCNC(=O)N[C@@H](CCSC)C(=O)OC` gave Ecoli rRNA inh 10, AF4-AF9 inh -13, E coli growth 0.74, T cruzi inh -4, UCH37 inh 1.6, A1 inh -0.6, Ecoli rRNA inh OD600 2 and Ecoli rRNA inh RFP 2.8.
COc1ccc(N=Nc2cc(OC)c(N)cc2OC)cc1 was read as Ecoli rRNA inh -10, FGF22 binding inactive, AF4-AF9 inh 32*, E coli growth 0.64, UCH37 inh 16, Ecoli rRNA inh OD600 7 and Ecoli rRNA inh RFP 5.2.
CC(=O)Nc1cccc(NC(=O)CSc2nc(=O)n(Cc3ccncc3)c3c2CCC3)c1 was read as Ecoli rRNA inh 1, FGF22 binding inactive, AF4-AF9 inh 8.3, E coli growth 0.67, T cruzi inh -10, UCH37 inh 7.7, A1 inh -0.9, Beta apoptosis -2, Ecoli rRNA inh OD600 3 and Ecoli rRNA inh RFP -3.6.
`CCC(=O)Nc1cc(C)c(NC(=O)c2ccccc2OC)cn1` gave E coli growth 0.73, T cruzi inh -4, UCH37 inh 2.7, A1 inh -0.2 and Beta apoptosis -2.
COc1ccccc1CNS(=O)(=O)c1c(C)nc2scc(C)n2c1=O was read as Ecoli rRNA inh 6, FGF22 binding inactive, AF4-AF9 inh -25, E coli growth 0.68, T cruzi inh 1, UCH37 inh -119, A1 inh 0.4, Beta apoptosis -7, Ecoli rRNA inh OD600 12 and Ecoli rRNA inh RFP 3.0.
Cc1ccccc1C(=O)N1CCC(C(=O)Nc2ccc(S(=O)(=O)N(C)C(C)C)cc2)CC1 was read as E coli growth 0.74, T cruzi inh -3, UCH37 inh 4.3, A1 inh 0.1 and Beta apoptosis 4.
Screening CCc1noc(C)c1C(=O)N1CCN(S(=O)(=O)c2ccc(C)cc2C)CC1 returned Ecoli rRNA inh -1, FGF22 binding inactive, AF4-AF9 inh 0.5, E coli growth 0.66, T cruzi inh -14, UCH37 inh 2.7, A1 inh -0.3, Beta apoptosis -1, Ecoli rRNA inh OD600 1 and Ecoli rRNA inh RFP 0.8.
COc1ccccc1CC(=O)Nc1ccc(Cl)cc1C(=O)O was read as Ecoli rRNA inh -18, FGF22 binding inactive, AF4-AF9 inh -7.2, E coli growth 0.69, T cruzi inh -9, UCH37 inh 1.5, A1 inh 0.9, Beta apoptosis 0, Ecoli rRNA inh OD600 -19 and Ecoli rRNA inh RFP -5.0.
`O=C(O)c1cccc(Nc2ccc([N+](=O)[O-])cn2)c1` gave Ecoli rRNA inh -4, FGF22 binding inactive, AF4-AF9 inh -13, E coli growth 0.68, T cruzi inh -11, UCH37 inh 10, A1 inh -8.4, Ecoli rRNA inh OD600 3 and Ecoli rRNA inh RFP -1.5.
`Cc1ccc(NC(=O)Nc2ccon2)cc1` gave Ecoli rRNA inh 1, FGF22 binding inactive, AF4-AF9 inh 0.1, E coli growth 0.69, T cruzi inh -3, UCH37 inh 5.4, Ecoli rRNA inh OD600 -1 and Ecoli rRNA inh RFP 1.6.
CCOc1ccccc1N1CCN(C(=O)c2ccc3nc(N)sc3c2)CC1 was read as Ecoli rRNA inh -2, FGF22 binding inactive, AF4-AF9 inh 0.3, E coli growth 0.66, UCH37 inh 2.9, A1 inh 0.0, Beta apoptosis -2, Ecoli rRNA inh OD600 4 and Ecoli rRNA inh RFP -0.4.
For CS(=O)(=O)NN1C(=O)c2ccccc2NC1c1ccccc1F (centres undefined) the results were Ecoli rRNA inh 6, FGF22 binding inactive, AF4-AF9 inh -2.1, E coli growth 0.69, T cruzi inh -19, UCH37 inh -227, A1 inh -0.3, Beta apoptosis -5, Ecoli rRNA inh OD600 5 and Ecoli rRNA inh RFP -1.9.
COc1ccc(NC(=O)COC(=O)CCCOc2ccc(Cl)cc2Cl)cc1 was read as Ecoli rRNA inh -4, FGF22 binding inactive, AF4-AF9 inh -0.7, E coli growth 0.63, T cruzi inh 7, UCH37 inh 2.2, A1 inh 0.3, Ecoli rRNA inh OD600 -9 and Ecoli rRNA inh RFP -4.6.
NS(=O)(=O)c1ccc(CCNC(=O)c2cc(-c3cccs3)nc3ccccc23)cc1 was read as Ecoli rRNA inh 20, AF4-AF9 inh -2.1, E coli growth 0.66, T cruzi inh -17, UCH37 inh -182, Ecoli rRNA inh OD600 24 and Ecoli rRNA inh RFP 13.
O=C(Nc1ccccc1C(F)(F)F)N1CCCCCC1 was read as E coli growth 0.66, T cruzi inh 0, UCH37 inh 7.1, A1 inh -0.4 and Beta apoptosis 6.
O=c1c2ccccc2nc(-c2ccco2)n1-c1nc2ccccc2s1 was read as E coli growth 0.69, T cruzi inh 9, UCH37 inh 4.0, A1 inh 0.6 and Beta apoptosis 0.
For CCCCNC(=S)N=Nc1c(O)n(Cc2ccccc2)c2ccccc12 the results were Ecoli rRNA inh -4, FGF22 binding inactive, AF4-AF9 inh 14, E coli growth 0.77, T cruzi inh 9, UCH37 inh 8.4, A1 inh -0.2, Beta apoptosis 8, Ecoli rRNA inh OD600 9 and Ecoli rRNA inh RFP 4.7.
`CC(C)(C)c1ccc(/C=N/OCC(=O)NCc2ccc(F)cc2)cc1` gave Ecoli rRNA inh -11, FGF22 binding inactive, AF4-AF9 inh -1.7, T cruzi inh 14, A1 inh -0.9, Beta apoptosis 3, Ecoli rRNA inh OD600 -25 and Ecoli rRNA inh RFP -13.
For O=P(c1ccccc1)(c1ccccc1)C(O)c1ccncc1 (centres undefined) the results were E coli growth 0.69, T cruzi inh -18, UCH37 inh -0.2 and A1 inh 0.3.
COCCCNC(=O)c1ccc2c(c1)OCO2 was read as E coli growth 0.66, T cruzi inh -7, UCH37 inh 5.0, A1 inh -0.6 and Beta apoptosis 2.
`CSc1nnc(-c2cccs2)n1-c1ccccc1` gave E coli growth 0.76, T cruzi inh 10, UCH37 inh 3.7, A1 inh -0.4 and Beta apoptosis -5.
For Cc1cc(C)n(C(=O)CNC(=O)c2ccccc2Br)n1 the results were Ecoli rRNA inh 2, FGF22 binding inactive, AF4-AF9 inh -1.7, E coli growth 0.65, T cruzi inh -7, UCH37 inh 3.2, A1 inh 0.5, Beta apoptosis 0, Ecoli rRNA inh OD600 16 and Ecoli rRNA inh RFP 1.0.
Screening CS(=O)(=O)c1ccccc1-c1nc(-c2ccc(C(F)(F)F)cc2)no1 returned E coli growth 0.77, T cruzi inh 20, UCH37 inh 1.6, A1 inh 0.4 and Beta apoptosis 4.
`COc1ccc2ccc(=O)oc2c1CC=C(C)C` gave Ecoli rRNA inh -2, FGF22 binding inactive, AF4-AF9 inh -1.4, E coli growth 0.72, T cruzi inh -3, UCH37 inh 3.9, A1 inh -0.5, Beta apoptosis -2, Ecoli rRNA inh OD600 -7 and Ecoli rRNA inh RFP -15.
For O=[N+]([O-])c1cc(F)cc(F)c1Nc1ccc(F)cc1 the results were Ecoli rRNA inh -11, FGF22 binding inactive, AF4-AF9 inh -1.3, E coli growth 0.63, UCH37 inh 1.5, Ecoli rRNA inh OD600 -10 and Ecoli rRNA inh RFP -4.1.
Screening Cn1c(=O)n(C)c2cc(S(=O)(=O)NCC(=O)O)ccc21 returned Ecoli rRNA inh 15, FGF22 binding inactive, AF4-AF9 inh -3.6, E coli growth 0.71, T cruzi inh -10, UCH37 inh -0.8, A1 inh 1.4, Ecoli rRNA inh OD600 5 and Ecoli rRNA inh RFP -5.8.

Three compounds picked at random from the list so far:
`COc1ccc2ccc(=O)oc2c1CC=C(C)C` gave Ecoli rRNA inh -2, FGF22 binding inactive, AF4-AF9 inh -1.4, E coli growth 0.72, T cruzi inh -3, UCH37 inh 3.9, A1 inh -0.5, Beta apoptosis -2, Ecoli rRNA inh OD600 -7 and Ecoli rRNA inh RFP -15.
Screening COc1cc(-c2nnn(CC(=O)NCc3ccccc3)n2)cc(OC)c1OC returned FGF22 binding inactive, AF4-AF9 inh -1.8, E coli growth 0.69, T cruzi inh 3, UCH37 inh -1.1, A1 inh 0.1 and Beta apoptosis 4.
`Cc1cccc(NC(=O)c2c(C)nc3ccccn23)c1` gave E coli growth 0.7, T cruzi inh 14, UCH37 inh 1.7, A1 inh -2.3 and Beta apoptosis -5.

Source: PubChem BioAssay (several laboratories)
